Screening data as filed in PubChem.
CDC25B-CDK2 inh – human CDC25B-CDK2/CyclinA binding inhibition | 94,000 compounds, 0.72% hits | AID 1259370 | HTRF CDC25B-CDK2/CyclinA binding, anti-His/anti-Flag; active compounds read high | z-score (test concentration not listed) | P30305+P24941;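 also: score is relative to mean and SD of negative controls; strong numbers were not always called active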
HIV TAR-Tat – HIV-1 TAR-Tat binding disruption; 100,000 compounds, 0.6% hits; HIV-1 TAR RNA, Tat peptide displacement FRET; active compounds read high; z-score (test concentration not listed);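 also: score is relative to mean and SD of negative controls; some compounds called inactive have numbers as strong as hits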
An asterisk follows results filed as active; x = not tested or not shown; & = joins results of further samples.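 The calls were made as follows: active = z-score from 3 up in half or more of its runs; inactive = the rest.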

entry	smiles	CDC25B-CDK2 inh	HIV TAR-Tat
1	CCOC(=O)c1c(C)c(C(=O)N(C)C2CCCCC2)c(C)n1C	-1	x
2	CC1NC(=S)N(C2CCCCC2)C1=O (stereo not drawn)	0.88	x
3	Cn1c(=O)c2c(-c3ccccc3Cl)c(NCCc3ccccc3)oc2n(C)c1=O	x	0.95
4	Cc1cc2n(n1)C(c1cccs1)Nc1c(C)cccc1-2 (stereo not drawn)	-1	1.6
5	C=CCOC(=O)C1C(c2cccc(F)c2)c2c([nH][nH]c2=O)CC1(C)O (stereo not drawn)	-0.23	0.96
6	CCCNc1cc(C)nc(CCC)n1	-0.13	0.82
7	CSc1cccc(NC(=O)c2cn3c4c(ccc(Cl)c4c2=O)OC(C)C3)c1 (stereo not drawn)	x	0.58
8	Cc1cc2oc3c(c(=O)c2cc1C)C(c1ccc(C(C)C)cc1)N(CCCN(C)C)C3=O (stereo not drawn)	-0.34	0.37
9	Cc1ncc(-c2ccc(S(=O)(=O)NCc3ccc4c(c3)OCO4)cc2)o1	x	0.93
10	C=CCOC(=O)C1=C(C)N=C2SCCC(=O)N2C1c1ccc(C(=O)OC)cc1 (stereo not drawn)	0.6	-0.75
11	COCCOC(=O)C1=C(C)Nc2nc3ccccc3n2C1c1ccccc1 (stereo not drawn)	-0.29	-0.72
12	CCOC(=O)CSc1nc2sc3c(c2c(=O)n1CC)CCCC3	-5	x
13	Cc1nc(N2CCCC2)ncc1C(=O)NCCCc1ccco1	x	1.1
14	CCOC(=O)c1nc(NC(C)CC)c2ccccc2n1 (stereo not drawn)	x	2.7
15	COc1ccc(N2C(=O)c3cccnc3C2Nc2cccc(F)c2)cc1 (stereo not drawn)	x	0.69
16	Cc1ncc(CSc2nccc(=O)[nH]2)c(CO)c1O	-2.4	x
17	CN(Cc1ccccc1)C(=O)C(NS(=O)(=O)c1ccc2c(c1)CCC(=O)N2)c1ccccc1 (stereo not drawn)	-0.36	x
18	Cc1nn(-c2nncc(-c3ccc(Cl)cc3)n2)c2c1C(c1ccsc1)CC(=O)N2 (stereo not drawn)	-2	2.9
19	CCC(C)N[C@H]1CS(=O)(=O)C[C@@H]1S(=O)(=O)c1ccc(Cl)cc1 (stereo partly drawn)	-2.6	-1
20	c1ccc(N2CCN(c3ncnc4nc[nH]c34)CC2)nc1	1	0.79
21	CC(C)(C)C(=O)OCc1cc(=O)n2c3c(sc2n1)CCCC3	x	-0.21
22	O=C(C1CC1)N1CCc2cc(S(=O)(=O)N3CCc4ccccc4C3)ccc21	-1.6	x
23	CCCCN(C)C(=O)C1CCN(c2nnc(-n3cccc3)s2)CC1	-0.55	-0.07
24	CC(C)Cc1nnc(NC(=O)CCCN2C(=O)/C(=C\c3cccs3)SC2=S)s1	-3.7	x
25	COc1ccc(OC)c(C(=O)CC2(O)C(=O)N(C(C)C)c3ccccc32)c1 (stereo not drawn)	0.87	0.7

In the list so far, these contain a Cl atom:
entry	smiles	CDC25B-CDK2 inh	HIV TAR-Tat
3	Cn1c(=O)c2c(-c3ccccc3Cl)c(NCCc3ccccc3)oc2n(C)c1=O	x	0.95
7	CSc1cccc(NC(=O)c2cn3c4c(ccc(Cl)c4c2=O)OC(C)C3)c1 (stereo not drawn)	x	0.58
18	Cc1nn(-c2nncc(-c3ccc(Cl)cc3)n2)c2c1C(c1ccsc1)CC(=O)N2 (stereo not drawn)	-2	2.9
19	CCC(C)N[C@H]1CS(=O)(=O)C[C@@H]1S(=O)(=O)c1ccc(Cl)cc1 (stereo partly drawn)	-2.6	-1

Later entries
entry	smiles	CDC25B-CDK2 inh	HIV TAR-Tat
26	CC1(C)C(=O)OC(c2cccc(Br)c2)C(C)(C)C1=O (stereo not drawn)	-0.67	0.1
27	CC(C)CCNS(=O)(=O)c1ccc2[nH]c(=O)oc2c1	-1.4	-0.99
28	COc1cccc(NS(=O)(=O)c2ccc(/C=C/c3onc(C)c3[N+](=O)[O-])s2)c1	x	0.58
29	CC(C)N(C(=O)Nc1cn(C)c(=O)c2ccccc12)C1CCCCC1	x	1.6
30	CC(C)CN[C@H]1CS(=O)(=O)C[C@@H]1S(=O)(=O)c1cccs1	0.06	-2.1
31	CCC(O)c1nc2ccccc2n1Cc1ccccc1Cl (stereo not drawn)	-0.27	1.3
32	CN(C)/C=N/c1nnc(Sc2ccc(C(F)(F)F)cc2[N+](=O)[O-])s1	0.52	x
33	O=C(CSc1nc2c(c(=O)n1-c1ccc(Br)cc1)SCC2)N1CCOCC1	-0.29	2.1
34	C=CCN1C(=O)C2(c3ccccc31)c1c(oc3ccccc3c1=O)C(=O)N2CCCOC(C)C (stereo not drawn)	-0.5	1.3
35	CCCc1nn(C)c2c(=O)[nH]c(-c3cc(S(=O)(=O)N4CCN(C)CC4)ccc3OCC)nc12	-1.3&7.8	16
36	COc1ccc(C2C(=O)N(C3CCCCCC3)CC(=O)N2CCC2=CCCCC2)cc1OC (stereo not drawn)	-1.9	x
37	CCc1ccc(OCc2cc(=O)n3ccsc3n2)cc1	-1.2	0.7
38	CCC(CC)C(=O)Nc1nc2c(s1)CC(C(C)(C)C)CC2 (stereo not drawn)	-0.33	-0.14
39	CCc1nn(CC(=O)NCCCN2CCc3ccccc3C2)c(=O)c2cc3sc(C)cc3n12	-0.96	-0.91
40	COC(=O)[C@H]1[C@H]2C[C@@H]3c4[nH]c5cc(OC)ccc5c4CCN3C[C@H]2C[C@@H](OC(=O)c2cc(OC)c(OC)c(OC)c2)[C@@H]1OC	0.76	1.2
41	CC(C)CCN(Cc1ccco1)S(=O)(=O)c1ccc(-c2ccc(=O)[nH]n2)s1	x	-0.5
42	O=C(c1cccs1)N1CCC(n2nc(-c3ccccc3)oc2=O)CC1	-1.4	1.9
43	CN[C@H]1C[C@@H](N)[C@H](O)[C@@H](O[C@@H]2O[C@H](CO)[C@@H]3OC4(O[C@@H]3[C@@H]2O)O[C@H](C(N)CO)[C@H](O)[C@H](O)[C@H]4O)[C@@H]1O (stereo partly drawn)	x	0.51
44	Cc1cc2c(=O)[nH]nc(N)c2c(=O)[nH]1	-1	x
45	COc1ccc(S(=O)(=O)[C@H]2CS(=O)(=O)C[C@@H]2NCc2ccccn2)cc1	-2	0
46	C=CCc1cc(/C=c2\sc3nc4ccccc4n3c2=O)cc(OC)c1OCC(=O)O	-0.1	x
47	COc1cc(C2SCCS2)cc(Br)c1O	1.2	x
48	Cn1nc(C(=O)NCc2ccco2)c2c1-c1ccccc1OC2	-1.5	0.23
49	O=C(Nc1ncc(Cc2ccc(F)cc2)s1)C1=Cc2cc(Cl)ccc2OC=C1	-1.1	-1.6
50	Cc1cc2nc(CSc3nc4ccc(NC(=O)COc5ccccc5F)cc4s3)cc(=O)n2o1	x	1
51	Clc1cccc(CNc2cc(-c3ccccc3)nc3nncn23)c1	-0.4	-1.2
52	O=C1OC(c2ccccc2)=N/C1=C\c1ccsc1	-2.4	x
53	COc1ccc2nc(C)cc(C(=O)O)c2c1	0.34	0.52
54	CC1CCCC(C)N1C(=O)CN(C)S(=O)(=O)c1ccc2c(c1)C(C)(C)C(=O)N2C (stereo not drawn)	x	0.97
55	Cc1csc2scc(C)c12	-1.4	x
56	C=CCn1c2ccccc2c2nnc(SCC(=O)Nc3c(C)n(C)n(-c4ccccc4)c3=O)nc21	0.91	1.5
57	CN(CC(=O)Nc1cccnc1)S(=O)(=O)c1ccc2c(c1)c(=O)n(C)c(=O)n2C	-2.4	x
58	Nc1nc(-c2ccccc2)nn1C(=O)CCc1ccccc1	0.29	-0.06
59	Cn1ccc2cc(S(=O)(=O)N3CCC(C(=O)NCCC4=CCCCC4)CC3)ccc21	x	0.18
60	OCCNC(=S)c1ccccc1	-0.58	x
61	CCOC(=O)CNC(=O)CSc1nc(-c2cccs2)nc2c1c(=O)n(C)c(=O)n2C	-1.3	x
62	c1ccc2[nH]c(-c3cscn3)nc2c1	x	2.5
63	Cc1ccnc(SCC(=O)n2c(C)c(C)c3ccccc32)n1	1.8	1.4
64	COc1ccc(-n2nnnc2C2CCN(S(=O)(=O)c3ccc(F)cc3)CC2)cc1	-3	-0.55
65	CN(C)CCNC(=O)CN1C(=O)COc2ccc(S(=O)(=O)N3CCCC3)cc21	-0.07	x
66	CN(Cc1ccco1)C(=O)C1CCN(S(=O)(=O)c2ccc3c(c2)CCCC(=O)N3)CC1	x	3.1
67	Cc1nnc2c(N3CCN(Cc4ccccc4)CC3)nc3ccccc3n12	0.28	2.6
68	Cn1c(-c2ccccc2)cnc1NCc1ccccc1	-1.2	-1
69	Cc1ccc(-c2c(C#N)c(SCC(=O)c3ccc(O)c(O)c3)nc3c2CCCC3)o1	-1.5	x
70	CN(C)CCCN(C(=O)c1cccs1)c1nc2c(F)cc(F)cc2s1	x	-0.04
71	CCOCCCNc1cc(N2CCN(C3CCCCC3)CC2)c2noc3c2c1C(=O)c1ccccc1-3	-1.8	1.5
72	O=C(CSc1ncnc2sc3c(c12)CCCC3)c1cccs1	0.03	0.33
73	COc1ccc(-c2nc3c(c(=O)[nH]2)Cc2cc(Br)ccc2O3)cc1OC	-1.8	2.4
74	C=CCOc1ccc(/C(O)=C2/C(=O)C(=O)N(CCCOC)C23C(=O)N(C)c2ccccc23)cc1C (stereo not drawn)	-0.04	0.33
75	CCOc1ccc(N2C(=O)CC(NCCCN3CCOCC3)C2=O)cc1 (stereo not drawn)	-2.1	x

Single records (already shown). Screens in order: CDC25B-CDK2 inh	HIV TAR-Tat
Record of Cn1ccc2cc(S(=O)(=O)N3CCC(C(=O)NCCC4=CCCCC4)CC3)ccc21 = x	0.18
Record of C=CCOc1ccc(/C(O)=C2/C(=O)C(=O)N(CCCOC)C23C(=O)N(C)c2ccccc23)cc1C (stereo not drawn) = -0.04	0.33
Record of CCOC(=O)CNC(=O)CSc1nc(-c2cccs2)nc2c1c(=O)n(C)c(=O)n2C = -1.3	x
Record of CN(Cc1ccco1)C(=O)C1CCN(S(=O)(=O)c2ccc3c(c2)CCCC(=O)N3)CC1 = x	3.1
Record of CN(C)CCNC(=O)CN1C(=O)COc2ccc(S(=O)(=O)N3CCCC3)cc21 = -0.07	x

Going on with the list.
entry	smiles	CDC25B-CDK2 inh	HIV TAR-Tat
76	CC(C)CCNC(=O)c1noc2c1CCc1sccc1-2	x	1.1
77	Nc1nc2ccccc2n1CCN1CCCC1	-0.45	-0.87
78	O=C(c1noc2c1CSc1ccccc1-2)N1CCN(c2ccc(F)cc2)CC1	0.51	1.1
79	CCCN(CCC)c1nn2c(=O)c(C(=O)NCCN(C)C)cnc2s1	x	1.3
80	CC(=O)N1c2ccc(S(=O)(=O)N3CCCCC3)cc2CC1C(=O)NCCN(C)C1CCCCC1 (stereo not drawn)	x	2.5
81	COc1c(Br)cc(Br)cc1/C=c1\sc2nc3cc(Br)cnc3n2c1=O	-1.6	x
82	CC(C)(Oc1ccc(C2CC2(Cl)Cl)cc1)C(=O)O (stereo not drawn)	-1.2	x
83	O=C(O)CCCN1C(=O)C(c2ccccc2)Oc2cccnc21 (stereo not drawn)	-0.39	-0.46
84	Cc1cc(NC(=O)CSc2cn(CC(=O)N3CCCC3)c3ccccc23)no1	x	-0.23
85	Cc1sc(-n2cccc2CNCc2ccc(OC(C)C)cc2)c(C(=O)O)c1C	x	0.18
86	CNC(=O)CCCc1nnc2n(C)c(=O)c3sccc3n12	x	-0.41
87	Cc1nc(-c2ccc(S(=O)(=O)Nc3ccc(F)cc3F)cc2)co1	x	0.73
88	CCOC(=O)CSc1sc(C(=O)OCC)c(C)c1C#N	-2.5	x
89	COc1ccc2c(c1)c(N1CCCC1=O)c(C(=O)NC1CCCC1)n2C	x	-0.15
90	Cc1ccc2c(c1)Cc1c(nc(-c3ccccc3C)[nH]c1=O)O2	-0.69	0.96
91	O=C(O)C1C2C=CC(CC2)C1C(=O)O (stereo not drawn)	-1.4	x
92	CCNc1nc(-c2ccc(OC)c(OC)c2)no1	x	0.74
93	Cc1nc2scc(C)n2c(=O)c1S(=O)(=O)NC1CCCCC1	-1.5	1.1
94	O=C(NCc1ccc(Cl)cc1)c1ccccc1	-0.96	x
95	COc1ccc(-c2ccc(NS(C)(=O)=O)cc2)nn1	x	0.43
96	CN(C)c1cc(Cl)cc(Cl)c1	-0.48	x
97	CCCCOC(=O)C1=C(C)NC2=C(C(=O)CCC2)C1c1ccccc1OC(C)C (stereo not drawn)	-0.03	-0.31
98	CCN1C(=O)Cc2cc(NS(=O)(=O)c3ccc(F)c(Cl)c3)ccc21	x	1.4
99	CNC(=O)NC1C(NC(=O)NC)N(C)C(=O)N1C (stereo not drawn)	-1.4	-0.07
100	CCCCn1c2ccccc2c2ccccc21	-0.23	0.47
101	CC(C)(N)Nc1ccc2c(c1)C(=O)c1ccccc1C2=O	-21	x
102	O=C(C1=Cc2ccccc2OC1)N1CCN(c2ccccc2)CC1	x	0.15
103	CCCCNc1oc(/C=C/c2cccs2)nc1C#N	-2.5	2
104	Cn1c(=O)c(=O)n(C)c2cc(S(=O)(=O)N3CCN(Cc4ccc5c(c4)OCO5)CC3)ccc21	-0.13	0.43
105	Cc1cc(=O)n(CCCO)c(O)c1C#N	0.92&-1.7	-0.8
106	COC(=O)c1sccc1NC(=O)NCCc1csc(C)c1C	x	0.04
107	C=CCNC(=O)c1cc(CC(C)C)on1	-1.8	1.3
108	N#CC1=C2SCN(c3ccc(F)cc3)CN2C(=O)CC1c1cccs1 (stereo not drawn)	6*	0.54
109	O=c1[nH]c(-c2cccc(Cl)c2)nc2c1Cc1cc(F)ccc1O2	-2.2	1.3
110	CCN(CC)CCNC(=O)c1cnc(NCc2ccc3c(c2)OCO3)nc1C	x	1.3
111	CCOc1cc(/C=c2\sc3nc4ccccc4n3c2=O)ccc1OCc1c(Cl)cccc1Cl	-1.9	x
112	c1ccc(Nc2ncnc3c2nc2n3CCCC2)cc1	x	1.6
113	CCC(C(=O)N1CCc2ccccc2C1)n1ncn2c(cc3occc32)c1=O (stereo not drawn)	0.45	1.3
114	COC(=O)CSc1nc(N2CCOCC2)c2c(c1C#N)CC(C)(C)OC2	-1.4	x
115	CCN1CCN(C(=O)c2cc3c(=O)n4cccc(C)c4nc3n2C)CC1	-0.34	x
116	CC1=NN(c2cc(Cl)cc(Cl)c2)C(=O)CC1	-2.1	x
